Source: PubChem
SARS PLP yeast: inhibitors of SARS-CoV papain-like protease in yeast. S. cerevisiae expressing SARS-CoV PLpro, growth rescue; control for the full effect not named in the record. actives 0.19% (n = 330,000). Potency, µM (titrated, usually from 32.9 µM), inactives show at the top dose activity, positive = growth rescue; active means well fitted rising curve with a large enough effect; inconclusive means small, poorly fitted or top-dose-only effect; inactive means no such curve, though single readings can be large or run the other way; also: 0% is about no effect; nearly all actives have a fitted effect of over 55% in size; growth read by luminescence after 48 h
Cruzain inh Det: blocks cruzain activity in presence of Triton detergent; P25779; purified cruzain, Z-FR-AMC fluorescence, 0.01% Triton; Potency, µM, without a hit: max response, negative = inhibition, usual class: inhibitors; actives 0.43% (n = 200,000); AID 1478;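 also: plate controls were neutral wells for no effect and buffer without enzyme for full effect; nearly all actives have a fitted effect of over 40% in size; top concentration of the series not given in the record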
Target sequence (P25779 123-467 limits assumed): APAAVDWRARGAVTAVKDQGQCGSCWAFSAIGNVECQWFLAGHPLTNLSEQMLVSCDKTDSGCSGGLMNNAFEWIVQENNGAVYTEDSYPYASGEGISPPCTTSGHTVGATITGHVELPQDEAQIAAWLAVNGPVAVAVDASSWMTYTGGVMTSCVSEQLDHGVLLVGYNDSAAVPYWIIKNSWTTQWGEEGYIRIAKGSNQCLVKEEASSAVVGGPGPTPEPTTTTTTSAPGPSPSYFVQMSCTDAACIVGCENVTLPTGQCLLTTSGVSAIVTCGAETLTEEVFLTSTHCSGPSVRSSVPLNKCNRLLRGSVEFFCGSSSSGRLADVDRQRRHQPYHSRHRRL
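15 min RT preincubation of 1.5 nM cruzain with compound, then 2 uM Z-FR-AMC added; kinetic AMC fluorescence, 60 s delta. Triton X-100 0.01%, pH 5.5.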
Cruzain inh noDet: blocks cruzain activity in detergent-free assay; P25779; purified cruzain, Z-FR-AMC fluorescence, no detergent; Potency, µM, without a hit: max response, negative = inhibition, most hits filed as inhibitors; actives 2.3% (n = 200,000);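 also: plate controls were enzyme without inhibitor for no effect and buffer without enzyme for full effect; nearly all actives have a fitted effect of over 40% in size; top concentration of the series not given in the record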
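Purified cruzain at 1.5 nM, pre-incubated 15 min with compound at room temperature in 100 mM sodium acetate pH 5.5, 5 mM DTT, 0.00005% Triton X-100. Reaction started with 2 uM Z-FR-AMC; AMC fluorescence increase over 60 s gives rate.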
NS1 inh: influenza NS1 inhibition; actives 0.4% (n = 270,000); AID 2326; S. cerevisiae slowed by influenza A NS1, growth recovery by OD600; Potency, µM (series often up to 46.1 µM), for the others: at the highest dose activity, positive = more growth; active means well fitted rising curve with a large enough effect; inconclusive means small, poorly fitted or top-dose-only effect; inactive means no such curve, though single readings can be large or run the other way; also: nearly all actives have a fitted effect of over 50% in size
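S. cerevisiae expressing influenza A NS1, grown in glucose, washed, then diluted 1:100 into pH 6.0 -URA galactose medium with 23 nl compound. Growth recovery read as OD600; NS1-free strain serves as control.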
* = called active by the depositor; ? = inconclusive; / = not tested or not shown. Unless noted, calls follow the shape of the dose curve; as a rule, active = well fitted curve in the direction sought with a large enough effect; inconclusive = small, poorly fitted or top-dose-only effect, or another doubt; inactive = no such curve, though single readings can be large; an effect the other way counts as inactive or inconclusive. Potency is read from the fitted curve at half-maximal effect. These rows are one share of the data (hit frequency here may not be typical).

SMILES	SARS PLP yeast	Cruzain inh Det	Cruzain inh noDet	NS1 inh
Nc1ccc(C(=O)C[C@H](N)C(=O)O)cc1O	/	-0.2%	1%	-1%
O=C(O)c1cc(-c2ccncc2)nc2ccccc12	/	-2.5%	2%	2%
Cc1ccccc1S(=O)(=O)O[C@@H]1NS(=O)(=O)c2ccccc21	/	3.5%	4%	-2%
C[N@@+]1(CC[N@@+]2(C)CCC[C@H]2c2cccnc2)CCC[C@@H]1c1cccnc1	/	-1.7%	-9%	3%
CS(=O)(=O)c1ccc(/C=N\NC(N)=S)cc1	/	-8.0%	-13%	-4%
O=c1[nH]c2[nH]c(=S)[nH]c(=S)c2[nH]1	/	2.4%	3%	6%
O=C(O)CSSCC(=O)O	/	3.6%	1%	-1%
O=C(O)c1ccc(C(=O)c2ccccc2)c(C(=O)O)c1	/	5.0%	6%	6%
O=c1c[n+](CC[n+]2cc(=O)o[nH]2)[nH]o1	/	-2.2%	1%	0%
O=C(O)[C@@H]1[C@@H]2C[C@H]([C@@H](Br)[C@H]2N2C(=O)CCC2=O)[C@@H]1C(=O)O	/	2.9%	11%	15%
CC(C)=CCNc1ncnc2c1c(C#N)cn2[C@H]1O[C@@H](CO)[C@@H](O)[C@@H]1O	/	4.3%	1%	-3%
OC[C@H](CCc1c[nH]c2ccccc12)c1c[nH]c2ccccc12	/	12%	2%	29%
O=C(CON1C(=O)c2ccccc2C1=O)c1ccccc1	/	1.0%	?	-3%
C[C@H]1C2C=C[C@H]1[C@@H](C(=O)O)[C@@H]2c1c2ccc(=O)c(O)c-2oc2c(O)c(O)ccc12	/	-19%	16%	5%
CC(=O)Nc1nc(NC(C)=O)c2[nH]c(CO)nc2n1	/	1.2%	8%	-1%
O=C(O)CSCCc1ccccc1	/	2.6%	10%	0%
CCOC(=O)c1cnc(N(C)C)nc1SC(=N)N	/	1.5%	-6%	-3%
Cc1ccc(CSC(N)=Nc2ccccc2)cc1C	/	2.9%	-6%	-3%
Cc1ncc(CO)c(CN)c1O	/	5.4%	10%	2%
C[n+]1cccc(/C=C\c2ccc3cccc(O)c3n2)c1	/	-0.9%	-2%	-4%
N[C@@H](CC1=CS(=O)(=O)c2ccc(Cl)cc21)C(=O)O	/	-3.4%	3%	8%
CCOc1ccc(/C=C2/Sc3ccc(C(=O)N4CCN(C(=O)c5ccco5)CC4)cc3N(C)C2=O)cc1OC	-9%	/	/	/
COc1ccc(CNC(=O)Cn2ncn3cccc3c2=O)cc1	-1%	/	/	/
CC(C)n1cnc2c(NCc3ccccc3)cc(N[C@@H](CO)Cc3ccccc3)cc21	0%	/	/	/
COc1cc([N+](=O)[O-])ccc1NC(=O)CSc1ccccn1	-7%	/	/	/
O=C(O)CS/C(=C\c1ccc(F)cc1)c1nc2ccccc2s1	-3%	/	/	/
Cc1ccnc(NC(=O)COc2ccccc2[N+](=O)[O-])c1	-5%	/	/	/
O=C(CCCn1c(=O)c2ccccc2n(Cc2cccc(F)c2)c1=O)NC1CCN(Cc2ccccc2)CC1	0%	/	/	/
O=C(O)c1ccccc1/C=N/Nc1nc(N2CCCCC2)nc(N2CCCCC2)n1	0%	/	/	/
CN1C(=O)COc2c(C(=O)NC3CN4CCC3CC4)cc(Cl)cc21 (stereo not drawn)	0%	/	/	/

Rewritten in markdown: part of the list above.
| Molecule | SARS PLP yeast | Cruzain inh Det | Cruzain inh noDet | NS1 inh |
| --- | --- | --- | --- | --- |
| CS(=O)(=O)c1ccc(/C=N\NC(N)=S)cc1 | / | -8.0% | -13% | -4% |
| O=c1[nH]c2[nH]c(=S)[nH]c(=S)c2[nH]1 | / | 2.4% | 3% | 6% |
| O=C(O)CSSCC(=O)O | / | 3.6% | 1% | -1% |
| O=C(O)c1ccc(C(=O)c2ccccc2)c(C(=O)O)c1 | / | 5.0% | 6% | 6% |
| O=c1c[n+](CC[n+]2cc(=O)o[nH]2)[nH]o1 | / | -2.2% | 1% | 0% |

The results go on.
SMILES	SARS PLP yeast	Cruzain inh Det	Cruzain inh noDet	NS1 inh
COc1ccc(/C(O)=C2/C(=O)C(=O)N(c3ncccn3)C2c2ccc(C(C)(C)C)cc2)cc1 (stereo not drawn)	5%	/	/	/
O=C1NC(Cc2ccccc2)c2nc3cc(Cl)ccc3c(=O)n2-c2cc(Cl)ccc21 (stereo not drawn)	-20%	/	/	/
O=C(O)c1ccc2c(c1)C(=O)N([C@@H](Cc1ccc(O)cc1)C(=O)O)C2=O	0%	/	/	/
COc1ccc(CCC(=O)Nc2cc(S(C)(=O)=O)ccc2Cl)cc1	8%	/	/	/
CCOC(=O)c1ccc(CNC(=O)Cn2nnc(-c3cccc(C)c3)n2)o1	3%	/	/	/
Cc1cc2c(s1)c(C#N)c(C(=O)NCc1ccccc1F)n2C	0%	/	/	/
O=C1OCC2=C1C(c1ccc(F)cc1)CC(=O)N2c1ccccc1 (stereo not drawn)	2%	/	/	/
Oc1cc(NCc2ccccc2)cc2cccnc12	3%	/	/	/
CNc1ncnc2ccc(-c3c(C)noc3C)cc12	-1%	/	/	/
Cn1c(=O)n(C)c2cc(/C=N/NC(=O)c3ccncc3)ccc21	0%	/	/	/
COc1ccccc1CNC(=O)c1cc2c(=O)[nH]c3ccccc3c2n1C	0%	/	/	/
CCOC(=O)C1(CCCCCCOc2ccc(Cl)cc2)CO1 (stereo not drawn)	-7%	/	/	/
C=CCn1cnnc1SCC(=O)Nc1cccnc1Cl	-2%	/	/	/
COc1ccc(NC(=O)c2nc[nH]c2C(=O)NCCCCCNC(=O)OC(C)(C)C)cc1	5%	/	/	/
C=CCN1C(=O)/C(=C2/Sc3ccc(OC)cc3N2C)SC1=Nc1ccc(OC)cc1	2%	/	/	/
O=C1NC(Cc2ccccc2)c2nc3ccc(F)cc3c(=O)n2-c2cc(Cl)ccc21 (stereo not drawn)	0%	/	/	/
O=C(O)c1ccc2c(c1)C(=O)N([C@H](Cc1c3ccccc3cc3ccccc13)C(=O)O)C2=O	-1%	/	/	/
Cn1c(=O)c2ncn(CC(=O)N=Nc3c(O)[nH]c4ccccc34)c2n(C)c1=O	2%	/	/	/
O=C(NCCCN1CCCC1=O)c1ccc2c(=O)n(-c3ccc(F)cc3)c(=S)[nH]c2c1	-3%	/	/	/
Cc1ccc(CC(=O)NCc2cccnc2)cc1	0%	/	/	/
O=C1NC(Cc2ccccc2)c2nc3ccc(F)cc3c(=O)n2-c2ccccc21 (stereo not drawn)	-2%	/	/	/
Cc1ccc(N2C(=O)NC(=O)/C(=C\c3ccc([N+](=O)[O-])o3)C2=O)cc1	-2%	/	/	/
CCOc1ccc(CCNC(=O)COC(=O)c2cc(OC)c(OC)c(OC)c2)cc1OCC	-1%	/	/	/
Cc1ccc(S(=O)(=O)c2ccccc2)cc1S	0%	/	/	/
CCCn1c(SCC(=O)N2CCCCC2)nnc1-c1ccccn1	1%	/	/	/
Fc1cccc(CNc2ncnc3ccc(-c4ccoc4)cc23)c1	6%	/	/	/
CC(=O)Nc1ccc(C(=O)OCC(=O)NCc2ccc(Cl)cc2)cc1	1%	/	/	/
O=C(NCc1ccc[n+](CCCCS(=O)(=O)[O-])c1)c1ccc(OC(F)F)cc1	-3%	/	/	/
O=C1NC(Cc2ccc(O)cc2)c2nc3ccc(Br)cc3c(=O)n2-c2ccc(Cl)cc21 (stereo not drawn)	4%	/	/	/
Cc1noc(C)c1C(=O)OCC(=O)Nc1cc(S(=O)(=O)N2CCOCC2)ccc1Cl	1%	/	/	/
O=C(Cn1c(=S)[nH]c2ncccc2c1=O)NCCc1ccccc1	0%	/	/	/
CCOc1ccc(N2C(=O)CN(O)C=C3N=c4ccccc4=C32)cc1	-3%	/	/	/
COc1ccccc1-c1n[nH]c(=S)n1Cc1ccco1	-3%	/	/	/
Oc1ccc(CNc2cccc(C(F)(F)F)c2)c2cccnc12	?	/	/	/
S=c1nc(C23CC4CC(CC(C4)C2)C3)nc2sccn12	-2%	/	/	/
O=C1c2c(O)cc(O)cc2O[C@H](c2ccc(O)c(O)c2)[C@@H]1O	1%	/	/	/
COCC(C)n1c(C)cc(C(=O)COC(=O)C2=NN(c3ccccc3)C(=O)CC2)c1C (stereo not drawn)	-1%	/	/	/
Cc1ccc(Oc2ccc(OCC(=O)Nc3ccncc3)cc2)cc1	-33%	/	/	/
Cc1[nH]c(=O)[nH]c(=O)c1/C=N\NC(=O)CCc1ccc(OC(C)C)cc1	-1%	/	/	/
Cc1c(Nc2cc(N3CCOCC3)c3nonc3c2[N+](=O)[O-])c(=O)n(-c2ccccc2)n1C	0%	/	/	/
COC(=O)c1cc(NC(=O)c2cccc(Cl)c2)c(=O)oc1/C=C/Nc1cc(C)cc(C)c1	2%	/	/	/
Cc1csc(SCC(=O)N(C)CC(=O)Nc2ccc(F)cc2)n1	2%	/	/	/
CCn1c(=S)[nH]c2cc(C(=O)O)ccc21	0%	/	/	/
Cc1cc2c(s1)c1c(C)nn(Cc3ccccc3F)c(=O)c1n2C	5µM*	/	/	/
CC(=O)Nc1ccc(OCC(=O)Nc2ccc(Cl)c(S(=O)(=O)N3CCOCC3)c2)cc1	4%	/	/	/
COC(=O)c1sc(NC(=S)NC(=O)c2ccc(F)cc2)nc1C	0%	/	/	/
COc1cccc(Cn2ncc3c4sc(B(O)O)cc4n(C)c3c2=O)c1	-7%	/	/	/
COc1ccccc1N=c1c2c([N+](=O)[O-])cc([N+](=O)[O-])cc2n(O)n1-c1ccccc1OC	1%	/	/	/
Cc1ccc(OCCn2cnc3sc(C(N)=O)c(C)c3c2=O)cc1	0%	/	/	/
Cc1cc(NC(=O)CCN2C(=O)/C(=C/c3ccccc3F)SC2=S)no1	-3%	/	/	/
S=C(NCCNCc1ccccc1)NC1CCCCC1	11%	/	/	/
CCOc1ccc(-n2c(SCC(=O)Nc3ccccc3CC)nc3n[nH]c(C)c3c2=N)cc1	2%	/	/	/
COc1cccc(CNC(=O)CSc2ccc(-c3ccncc3)nn2)c1	1%	/	/	/
CCc1noc(C)c1C(=O)Nc1nnc(C2CCCCC2)s1	-2%	/	/	/
O=C(CSc1nnc(-c2ccccc2)c2ccccc12)NCC1CCCO1 (stereo not drawn)	2%	/	/	/
COc1ccc(-c2ccc3c(n2)sc2c(=O)[nH]c(=O)[nH]c23)cc1OC	1%	/	/	/
CC(C)(C)[C@H](NC(=O)c1ccc(N)c(Cl)c1)C(=O)N1CCC[C@H]1C(=O)N[C@H](C#N)Cc1nn[nH]n1	1%	/	/	/
CCN(C(=O)COC(=O)c1cccc(NS(=O)(=O)c2ccc(F)c(F)c2)c1)C1CCS(=O)(=O)C1 (stereo not drawn)	1%	/	/	/
CN1C(=O)CN=C(c2ccccc2)c2cc(Cl)ccc21	1%	/	/	/
CCn1c(COc2ccc(OC)cc2)nnc1SCc1nc2ccccc2c(=O)[nH]1	-1%	/	/	/

Next section
SMILES	SARS PLP yeast	Cruzain inh Det	Cruzain inh noDet	NS1 inh
N/C(=N\OC(=O)COc1ccc([N+](=O)[O-])cc1)c1ccc(Br)cc1	0%	/	/	/
COc1ccc(CN2CCN(CCCc3ccccc3)CC2)c(OC)c1	-2%	/	/	/
O=C1OC(c2ccc(F)cc2)=C/C1=C\c1ccc([N+](=O)[O-])o1	-6%	/	/	/
Cc1cc2nc(-c3cccnc3SCC(=O)NC3CC3)[nH]c2cc1C	-1%	/	/	/
CN(C)C(Cc1ccccc1)C(=O)c1cccs1 (stereo not drawn)	3%	/	/	/
CCc1cc2c(C)cc(=O)oc2cc1Oc1ncccc1[N+](=O)[O-]	-4%	/	/	/
O=C1NC(Cc2ccccc2)c2nc3cc(F)ccc3c(=O)n2-c2ccccc21 (stereo not drawn)	1%	/	/	/
O=C(Nc1ccccc1)N1CCN(C(=O)Nc2ccccc2)CC1	-6%	/	/	/
C[C@]12CCC3C(CC[C@H]4C[C@@H](O)CC[C@]34C)C1C[C@@H](Br)[C@H]2O (stereo partly drawn)	-11%	/	/	/
COc1ccc(CN=Nc2cc(C)nc(NS(=O)(=O)c3ccccc3Cl)n2)cc1	-1%	/	/	/
CCOc1ccc(NC(=O)c2nn(-c3ccc(OC)cc3OC)c(=O)c3ccccc23)cc1	2%	/	/	/
Cc1ccc(-n2c(-c3cn(C)nc3C)n[nH]c2=S)cc1	4%	/	/	/
Cc1ccc2nc3n(c(=O)c2c1)-c1cc(Cl)ccc1C(=O)NC3Cc1ccc(O)cc1 (stereo not drawn)	11%	/	/	/
CC(=O)Nc1cc2c(s1)c1cnn(Cc3ccccc3F)c(=O)c1n2C	-2%	/	/	/
